# Screens deposited in PubChem by National Center for Advancing Translational Sciences (NCATS).
# Cruzain inh noDet = blocks cruzain activity in detergent-free assay; P25779; purified cruzain, Z-FR-AMC fluorescence, no detergent; Potency, µM, inactives show max response, negative = inhibition, actives largely listed as inhibitors; 200,000 compounds, 2.3% hits; AID 1476;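 further: plate controls were enzyme without inhibitor for no effect and buffer without enzyme for full effect; nearly all actives have a fitted effect of over 40% in size; top concentration of the series not given in the record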
# Target sequence (P25779 123-467 limits assumed): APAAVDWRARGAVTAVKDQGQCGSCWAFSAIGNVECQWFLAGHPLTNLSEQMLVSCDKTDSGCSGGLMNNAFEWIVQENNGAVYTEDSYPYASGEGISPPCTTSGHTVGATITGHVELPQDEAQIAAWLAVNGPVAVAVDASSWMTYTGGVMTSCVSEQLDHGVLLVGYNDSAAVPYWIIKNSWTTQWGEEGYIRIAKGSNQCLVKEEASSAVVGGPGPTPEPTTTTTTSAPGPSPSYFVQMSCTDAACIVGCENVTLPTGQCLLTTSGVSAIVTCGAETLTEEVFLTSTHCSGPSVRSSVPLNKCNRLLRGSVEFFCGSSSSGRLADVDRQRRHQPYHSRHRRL
#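 Detergent-free condition (0.00005% Triton X-100) in acetate buffer pH 5.5 with DTT. 1.5 nM enzyme and compound were pre-mixed 15 min, then 2 uM Z-FR-AMC substrate added; reaction progress from fluorescence change between first and third reads (60 s).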
# NS1 inh = influenza NS1 inhibition; 270,000 compounds, 0.4% hits; AID 2326; S. cerevisiae slowed by influenza A NS1, growth recovery by OD600; Potency, µM (series often up to 46.1 µM), inactives show at the top dose activity, positive = more growth; active means well fitted rising curve with a large enough effect; inconclusive means small, poorly fitted or top-dose-only effect; inactive means no such curve, though single readings can be large or run the other way; further: nearly all actives have a fitted effect of over 50% in size
#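 S. cerevisiae expressing influenza A NS1, grown in glucose, washed, then diluted 1:100 into pH 6.0 -URA galactose medium with 23 nl compound. Growth recovery read as OD600; NS1-free strain serves as control.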
# StopGo reporter = lowers the luciferase signal of an FMDV 2A StopGo reporter; human cells with a luciferase reporter of 2A StopGo recoding; control for the full effect not named in the record; Potency, µM (highest dose often 57.9 µM), without a hit: at the highest dose signal change, negative = less light; AID 1159524; 410,000 compounds, 1.2% hits; active = well fitted falling curve with a large enough effect; inconclusive = small, poorly fitted or top-dose-only effect; inactive = no such curve, though single readings can be large or run the other way; tested in HEK293T cells; further: on the % scale 0 is the no-effect control and ±100 the full control effect; nearly all actives have a fitted effect of over 45% in size; luciferase light after 4 h
# RE007 growth inh = less growth of the S. pombe RE007 Vpr strain | S. pombe RE007 Vpr strain, BacTiter-Glo ATP luminescence, 24 h; control for the full effect not named in the record | Potency, µM (doses to about 92.2 µM), for inactives: top-dose activity change, negative = less growth | 360,000 compounds, 0.21% hits | AID 651644; active = well fitted falling curve with a large enough effect; inconclusive = small, poorly fitted or top-dose-only effect; inactive = no such curve, though single readings can be large or run the other way;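 further: on the % scale 0 is the no-effect control and ±100 the full control effect; nearly all actives have a fitted effect of over 50% in size; the assay follows cell death caused by Vpr and the record does not say whether a fall means rescue or toxicity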
#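 Fission yeast RE007 carrying one integrated HIV-1 vpr copy, seeded at OD 0.01 in PMG+AL medium with 23 nL pinned compound. Grown 24 h at 30 degrees; viability read by BacTiter-Glo luminescence after 5 min.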
# SARS PLpro yeast = blocks SARS-CoV papain-like protease in a yeast assay; S. cerevisiae expressing SARS-CoV PLpro, growth rescue; control for the full effect not named in the record; Potency, µM (series often up to 32.9 µM), without a hit: top-dose activity, positive = growth rescue; 330,000 compounds, 0.19% hits; AID 485353; active means well fitted rising curve with a large enough effect; inconclusive means small, poorly fitted or top-dose-only effect; inactive means no such curve, though single readings can be large or run the other way; further: 0% is about no effect; nearly all actives have a fitted effect of over 55% in size; growth read by luminescence after 48 h
# LASV entry inh = inhibitors of Lassa virus binding or cell entry; Lassa virus pseudotype entry inhibition, cell reporter; control for the full effect not named in the record; Potency, µM (doses to about 37.9 µM), for inactives: top-dose activity change, negative = inhibition, actives largely listed as inhibitors; 300,000 compounds, 1.2% hits; AID 540256; active means well fitted inhibition curve with a large enough effect; inconclusive means small, poorly fitted or top-dose-only effect, or effect the other way; inactive means flat fitted curve, though single readings scatter; tested in HEK293 cells; further: on the % scale 0 is the no-effect control and ±100 the full control effect; nearly all actives have a fitted effect of over 50% in size; luciferase read-out
# Marburg entry inh = Marburg virus entry inhibition | Marburg virus pseudotyped entry inhibition, cell reporter; control for the full effect not named in the record; about a third of the inactives were read at about 46 µM | Potency, µM (top dose mostly 37.8 µM), for the others: at the highest dose activity change, negative = inhibition, actives largely listed as inhibitors | 300,000 compounds, 1.8% hits | AID 540276; active = well fitted inhibition curve with a large enough effect; inconclusive = small, poorly fitted or top-dose-only effect, or effect the other way; inactive = flat fitted curve, though single readings scatter; tested in HEK293 cells; about a fifth of its hits are not listed in these tables; further: on the % scale 0 is the no-effect control and ±100 the full control effect; luciferase read-out
# Cruzain Triton = blocks cruzain activity in presence of Triton detergent; P25779; purified cruzain, Z-FR-AMC fluorescence, 0.01% Triton; Potency, µM, inactives show max response, negative = inhibition, usual class: inhibitors; 200,000 compounds, 0.43% hits; AID 1478;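 further: plate controls were neutral wells for no effect and buffer without enzyme for full effect; nearly all actives have a fitted effect of over 40% in size; top concentration of the series not given in the record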
#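 Cysteine protease activity tested under reducing, mildly acidic conditions (100 mM sodium acetate pH 5.5, 5 mM DTT) plus 0.01% Triton X-100. Cruzain 1.5 nM; substrate Z-FR-AMC 2 uM; 15 min compound preincubation at room temperature.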
# * = called active by the depositor; ? = inconclusive; nt = no result given; & = joins results of further samples; [ ] = remark or other dose. Unless noted, the call rests on the fitted dose curve; in most records, active means well fitted curve in the direction sought with a large enough effect; inconclusive means small, poorly fitted or top-dose-only effect, or another doubt; inactive means no such curve, though single readings can be large; an effect the other way counts as inactive or inconclusive. Potency means the concentration at half of the fitted maximal effect.
SMILES,Cruzain inh noDet,NS1 inh,StopGo reporter,RE007 growth inh,SARS PLpro yeast,LASV entry inh,Marburg entry inh,Cruzain Triton
Cc1nn(Cc2ccc(F)cc2)c2sc(C(=O)Nc3nccs3)cc12,-2%,9%,-22%,12%,1%,7%,4%,-0.8%
O=C(CCc1nnc2ccc(N3CCCCC3)nn12)NCc1ccco1,nt,5%,8%,12%,-3%,2%[46.1 µM],-12%[46.1 µM],nt
COc1cccc(C(C(=O)NC2CCCC2)N(C(=O)c2ccco2)C2CC2)c1OC (stereo not drawn),3%,1%,15%,-10%,3%,-3%,-2%,1.2%
CCOc1ncccc1C(=O)OCC(=O)N(CC(C)C)C1CCS(=O)(=O)C1 (stereo not drawn),nt,3%,0%,6%,-2%,-3%,7%[46.1 µM],nt
CCN(CC)CCCN(Cc1cc2cc3c(cc2[nH]c1=O)OCO3)C(=S)Nc1ccccc1OC,nt,2%,-15%,-17%,0%,8%,?,nt
Cc1cc(C)nc(N2CCC(C(=O)Nc3cccc(C(F)(F)F)c3)CC2)n1,-2%,-39%,-20%,4%,3%,-13%,?,-3.2%
Cc1nc2nc(NC(=O)C(C)(C)C)[nH]n2c(=O)c1Cc1ccccc1,5%,nt,-8%,nt,nt,14%[46.1 µM],9%[46.1 µM],-1.2%
C/C(=C\C(=O)c1ncc(C(F)(F)F)cc1Cl)N(C)C,nt,6%,0%,3%,-1%,-9%[46.1 µM],3%[46.1 µM],nt
Clc1nc2c(-c3ccccc3)nnn2c2ccccc12,nt,-31%,-10%,-5%,-6%,nt,nt,nt
Cc1cccc(C(=O)N(CC(=O)Nc2sc(C)c(C)c2C(N)=O)C2CCCC2)c1,nt,1%,?,4%,2%,nt,?,nt
CCn1c(=O)n(CC(=O)Nc2cc(OC)ccc2OC)c(=O)c2ccccc21,10%,-8%,-16%,-12%,-1%,-10%,-11%,-5.8%
Clc1ccc(OCCOCCN2CCc3ccccc3C2)c(Cl)c1,-5%,-12%,-3%,-14%,-31%,?,?,1.1%
COc1cc2nc(N(C)C)nc(N)c2cc1OC,29%,1%,0%,-21%,3%,-15%,?,3.5%
CC(C)CN1CN(Cc2ccccc2)CNC1=S,1%,8%,-4%,-6%,13µM*,?,3%,-1.6%
CC(=O)c1[nH]c(C)c(C(=O)N2CCCC(Nc3ccc(C(C)C)cc3)C2)c1C (stereo not drawn),nt,-5%,-14%,25%,-11%,?,?,nt
Cc1ccc(S(=O)(=O)N(C)c2ccc(C(=O)NCC3CCCO3)cc2)cc1 (stereo not drawn),7%,2%,0%,4%,-1%,-7%,2%,-0.6%
CCOC(=O)C=C1CCN(c2ncc(C(F)(F)F)cc2Cl)CC1,-7%,7%,-25%,-14%,-3%,-7%,-25%,-0.8%
COc1ccc(CC(=O)N(C)CC(=O)Nc2cccc(F)c2)cc1S(=O)(=O)N1CCOCC1,nt,2%,-18%,-7%,-5%,2%,-3%,nt
CCN(CC)S(=O)(=O)c1ccc2nc(CCl)[nH]c2c1,nt,nt,-28%,-2%,1%,-5%,-11%,nt
CCOc1ccccc1CNC(=O)c1nn(C)c2c1CS(=O)(=O)c1ccccc1-2,-9%,5%,-18%&-16%,12%,0%,24%[46.1 µM],nt,-5.2%
COc1cc(C(=O)N/N=C/c2ccc3c(c2)c2ccccc2n3C)ccc1O,nt,-9%,-23%,3%,0%,-29%,?,nt
Cc1oc(C(N)=O)nc1-c1ccccc1,nt,-2%,0%,-7%,2%,3%[46.1 µM],1%[46.1 µM],nt
COc1cc2c(cc1NC(=O)C(Cl)Cl)-c1ccc(NC(=O)C(Cl)Cl)cc1C2,nt,nt,2%,-3%,nt,?,nt,nt
COc1ccccc1N=Nc1c(O)[nH]c2ccc(Br)cc12,nt,0%,-1%,-3%,0%,12%[46.1 µM],21%[46.1 µM],nt
O=C(/C=C/c1ccccc1)Nc1cc(NC(=O)/C=C/c2ccccc2)cc(C(=O)O)c1,nt,?,-10%,-18%,0%,-5%[46.1 µM],-7%[46.1 µM],nt
# Carrying on:
SMILES,Cruzain inh noDet,NS1 inh,StopGo reporter,RE007 growth inh,SARS PLpro yeast,LASV entry inh,Marburg entry inh,Cruzain Triton
CN1C2C=C3C(C#N)=C(N)C(C#N)(C#N)C(c4ccc(Br)cc4)C3C1CC2 (stereo not drawn),-23%,23%,-14%,-11%,4%,-13%,10%,-9.6%
CC(C)(C)CC(=O)Nc1ccc(S(=O)(=O)NC2=NCCCCC2)cc1,nt,nt,22%,-8%,0%,-13%,?,nt
CN(C)S(=O)(=O)c1cccc(C(=O)Nc2ccc(C(=O)Nc3cccc(S(N)(=O)=O)c3)cc2)c1,nt,nt,-2%,34%,-10%,5%[46.1 µM],0%[46.1 µM],nt
CCN(CC)C(=O)Oc1ccc2c(c1)O/C(=C\c1ccco1)C2=O,nt,-7%,7%,-2%,-3%,30%[46.1 µM],?,nt
COC(=O)N/N=C/c1ccc(Oc2ccccc2)cc1,nt,nt,5%,11%,-7%,-16%,-28%[46.1 µM],nt
COc1ccc(C(C(=O)NC2CCCC2)N(Cc2ccc(C)cc2)C(=O)c2ccn[nH]2)cc1OC (stereo not drawn),4%,7%,2%,-5%,3%,-1%,-8%,3.8%
CCOc1ccc(NC(=O)Cn2c3ncccc3c(=O)n2-c2ccc(CC)cc2)cc1,11%,nt,-29%,nt,nt,-10%[46.1 µM],nt,0.1%
O=C(O)CCCc1nc(-c2ccc(Cl)cc2)no1,6%,-78%,-16%,5%,-8%,-11%,?,5.6%
COc1ccc(C(=O)CC(c2ccccc2)S(=O)(=O)c2ccc(C)cc2)cc1 (stereo not drawn),4%,-2%,nt,nt,-2%,2%,4%,2.5%
Cc1ccc(N(CC(=O)O)S(C)(=O)=O)cc1,nt,nt,31%[activator],8%,-1%,2%,6%[46.1 µM],nt
Cc1cc(NS(=O)(=O)c2cccc([N+](=O)[O-])c2)no1,nt,-4%,-10%,6%,-2%,nt,nt,nt
COc1cccc2c1C(=O)c1c(O)c3c(c(O)c1C2=O)CC(O)(C(C)=NO)CC3OC1CC(N)C(O)C(C)O1 (stereo not drawn),nt,nt,25%,-3%,nt,?,?,nt
CCCOc1ccc(CCCN=C(N)N)cc1Cl,nt,-3%,?,3%,-2%,0%,?,nt
COc1ccc(-c2nnc(SCC(=O)N(C)Cc3ccccc3)o2)cc1OC,?,nt,-1%,nt,nt,-24%[46.1 µM],9%[46.1 µM],-8.5%
CN(Cc1nccn1C)C(=O)CC1C(=O)NCCN1CC(c1ccccc1)c1ccccc1 (stereo not drawn),nt,0%,-14%,-26%,1%,nt,nt,nt
COc1ccc(-c2nc(CS(=O)CC(=O)NCc3cccnc3)c(C)o2)cc1 (stereo not drawn),-1%,?,-13%,-4%,30%,nt,nt,1.5%
O=C(N/N=C/c1ccc([N+](=O)[O-])o1)C1CC1,nt,-26%,-8%,-28%,2%,?,?,nt
COC(=O)c1ccc(Cl)cc1NC(=O)N1CCCn2nc(C)cc21,2%,nt,-5%,nt,nt,?,nt,5.2%
CCN(Cc1ccccc1)C(=O)Cn1cc2c(n1)CCCC2,7%,2%,-16%,1%,3%,nt,nt,2.6%
O=C1CC(c2ccc(Cl)c([N+](=O)[O-])c2)c2ccc3ccccc3c2N1 (stereo not drawn),?,?,?,14%,2%,?,?,-4.1%
Cc1ccc(SCCC(=O)NCc2ccco2)cc1,2%,-8%,-2%,-2%,-2%,-21%,11%[46.1 µM],4.5%
S=c1[nH]nc(CSc2nc3ccccc3s2)n1C1CCCCC1,?,15%,-27%,-6%,-23%,-14%,-15%,-11%
NC(=O)c1cccn1Cc1ccccc1Cl,-11%,-27%,-23%,1%,-6%,-22%[14.3 µM],-3%,2.3%
NC1=NC(=O)S/C1=C\c1ccc(F)cc1,nt,-4%,-11%,4%,0%,-3%,-7%,nt
O=C(Nc1ccc(C(=O)c2ccccc2)cc1)c1ccccc1,nt,-41%,18%,25%,-2%,?,?,nt
# Further structures:
SMILES,Cruzain inh noDet,NS1 inh,StopGo reporter,RE007 growth inh,SARS PLpro yeast,LASV entry inh,Marburg entry inh,Cruzain Triton
Cn1nc(C(F)(F)F)c2cc(C(=O)N3CCOCC3)sc21,nt,-2%,-4%,6%,0%,18%[46.1 µM],23%[46.1 µM],nt
Cc1ccc([N+](=O)[O-])cc1-c1ccc(/C=C(\C#N)c2[nH]nc(N)c2C#N)o1,-19%,?,-25%,3%,4%,?,?,-15%
O=C1C=C(Nc2ccccc2)c2ccccc2C1=O,nt,2%,?,?,-2%,7.1µM*,?,nt
O=C(CSc1ccc(F)cc1)Nc1ccc(C2SCCS2)cc1,nt,3%,58%[activator],3%,0%,-1%,?,nt
CC1CCCC(C)N1C(=O)COC(=O)c1cc(-c2cccs2)nn1-c1ccccc1 (stereo not drawn),nt,nt,-13%,-15%,2%,-10%,?,nt
CCOC(=O)c1c(C)[nH]c(C)c1S(=O)(=O)N1CCCCC1,nt,9%,4%,0%,2%,nt,nt,nt
O=C(NC12CC3CC(CC(C3)C1)C2)N1CC2Cc3cccc(=O)n3C(C2)C1 (stereo not drawn),5%,-6%,-13%,0%,-1%,8%,-12%,2.3%
Cc1cc(NCC2CCCO2)n2c(nc3ccccc32)c1C#N (stereo not drawn),17%,1%,?,-2%,nt,-17%,1%[46.1 µM],-17%
Cn1nnc2c(N3CCCCC3)nccc21,4%,-5%,4%,-1%,-7%,13%,23%[46.1 µM],2.5%
Cc1noc(C)c1C(=O)N(C)Cc1ccccc1,nt,2%,4%,6%,0%,17%,-4%[46.1 µM],nt
C/C(=C\C(=O)c1ccc(C)cc1)Nc1ccc(N2CCOCC2)cc1,1%,-7%,nt,nt,-16%,nt,1%,1.3%
CC(C)c1ccc2occ(CC(=O)N(Cc3ccc(F)cc3)C3CCS(=O)(=O)C3)c2c1 (stereo not drawn),?,nt,-24%,nt,nt,1%[46.1 µM],-27%[46.1 µM],-9.2%
O=C(CSc1nc2ccccc2c(=O)[nH]1)c1ccccc1,-16%,1%,29%,9%,13%,5%,7%,3.0%
COc1ccc(NC(=O)Cn2nnc(C(=O)NCCc3ccccc3)c2N)c(OC)c1,nt,2%,16%,1%,-3%,nt,nt,nt
COC(=O)Cc1ccc(NC(=S)NCc2cccc(OC)c2)cc1,nt,-3%,17%,-10%,-2%,-5%,-1%[46.1 µM],nt
